HTT promoter inh: inhibitors of huntingtin promoter activity | Potency, µM (highest dose often 57.5 µM), for inactives: at the top dose activity change, negative = inhibition, usual class: inhibitors | HEK293 HTT promoter firefly luciferase reporter (activity 0% = vehicle and -100% = no light), 24 h | actives 0.93% (n = 48,000); active = well fitted inhibition curve with a large enough effect; inconclusive = small, poorly fitted or top-dose-only effect; inactive = no such curve, though single readings can be large or run the other way; also: nearly all actives have a fitted effect of over 50% in size
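Luminescence was read after Dual-Glo reagent and a 10 min room-temperature incubation. Values were normalized to vehicle (0% activity) and zero RLU (-100% activity). Reporter HEK293 cells had been exposed to compounds (up to 57.5 uM final) for 24 h.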
PMP22 txn prim: PMP22 gene transcription modulation | S16 Pmp22-F2sN Schwann cells (luciferase reporters placed in the Pmp22 gene), FLuc/NLuc coincidence luminescence, 24 h | Potency, µM (highest dose often 57.5 µM), for the others: top-dose activity change, negative = inhibition, actives largely listed as inhibitors | actives 2% (n = 43,000) | AID 1508649; active = clear falling dose curves in both reporters; inconclusive = both reporters move, but less clearly or upward; inactive = either reporter flat; the % is the NLuc reporter signal; also: % is scaled to controls: 0 for no effect and ±100 for the full control effect; some results filed as inactive show a strong effect at the top dose
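Rat S16 Pmp22-F2sN cells, 500-1,000/well in phenol red-free DMEM + 10% FBS, compound-treated 24 h (37C, 5% CO2). Luminescence: FLuc read, Stop&Glo added, NLuc read.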
* = called active by the depositor; ? = inconclusive; . = not tested or not shown; & = joins results of further samples; [ ] = remark or other dose. Potency is read from the fitted curve at half-maximal effect.

Fields – HTT promoter inh | PMP22 txn prim
CC(=O)c1cccc(NC(=O)CCS(=O)(=O)c2cc(Br)cc3c2N(C(=O)C2CC2)CC3)c1
 : -7% | -10%
CC1=C(C(=O)OCC2CCCCC2)C(c2c(F)cccc2Cl)CC(=O)N1 (centres undefined)
 : -32% | 0%
COc1ccc(-n2ncc(C(=O)NCc3ccccc3)c2C2CCN(C(=O)OC(C)(C)C)CC2)cc1
 : -15% | -2%
COc1ccc(NC(=O)Cn2cnc3ccc(S(=O)(=O)N4CCC(C)CC4)cc3c2=O)cc1OC
 : -21% | ?
Cc1ccc(Nc2cc(C)c(C#N)c3nc4ccccc4n23)cc1Cl
 : -5% | -44%
CC(=O)Nc1ccc(S(=O)(=O)NC2(C(F)(F)F)C(=O)Nc3c2c(=O)[nH]c(=O)n3-c2ccc(C)cc2)cc1 (centres undefined)
 : -11%[11.5 µM] | 12%
OC[C@@H](O)[C@H](O)[C@H](O)[C@@H](O)CO
 : 14%&5% | .
Cc1ccccc1CNCCCSc1nnnn1C
 : -8% | -8%
COc1ccc(NC(=O)C(=O)NCCc2ccc(OC)c(OC)c2)c(OC)c1
 : -5% | -119%
Cc1ccc(CNC(=O)C2CCN(c3nc4ccccc4n(C)c3=O)CC2)cc1
 : -9% | 1%
Cc1ccc(NC(=O)c2ccc(=O)n(CC(=O)Nc3ccccc3)n2)cc1
 : ? | 8%
C[C@H]1[C@H](NC(=O)/C(=N/OC(C)(C)C(=O)O)c2csc(N)n2)C(=O)N1S(=O)(=O)O (stereo in doubt)
 : 15% | .
COc1cccc(N2CCN(c3ncnc4c3c(-c3ccccc3)cn4-c3ccc(F)cc3)CC2)c1
 : -17% | -5%
COc1ccc(-c2nc3nc(C)cc(Nc4cccc(C(F)(F)F)c4)n3n2)cc1
 : 2% | 2%
Cc1c(NC(=O)c2cc(=O)c3cc(Cl)ccc3o2)c(=O)n(-c2ccccc2)n1C
 : 2%[11.5 µM] | 4%
O=C1CC(c2ccccc2)c2c(n3ncnc3[nH]c2=O)N1 (centres undefined)
 : -4% | ?
Cc1cc(C)cc(NC(=O)NCCc2c(C)nn(C)c2C)c1
 : -21% | 15%
O=C(CN1C(=O)C2(SCC(=O)N2c2cccc(F)c2)c2ccccc21)NCCc1ccccc1 (centres undefined)
 : -10% | -12%
Cc1cc(Nc2ccccc2C)n2nc(Cc3ccc(Cl)cc3)nc2n1
 : -15% | ?
CCN1CCN(c2ncc3c(n2)CCN(Cc2ccc(OC)c(OC)c2)C3)CC1
 : -9% | -10%
CN1CCN(C(=O)C(=O)Nc2c3c(nn2-c2ccc(Cl)cc2)CSC3)CC1
 : -13% | 1%
COCCCNC(=O)CSc1nc2cc(OC)c(OC)cc2c2nc(-c3ccccc3)nn12
 : 1% | 2%
Cc1ccc(-c2nc(CS(=O)CC(=O)N3CCN(c4ccccc4)CC3)c(C)o2)cc1 (centres undefined)
 : -21% | -16%
O=C(CSc1nccn1Cc1ccc(F)cc1)NCc1ccco1
 : -10% | -1%
Fc1ccccc1N1CCN(c2c3c(nc4nncn24)CCC3)CC1
 : -34% | ?
CC(=O)Nc1ccccc1OCc1cc(=O)n2c3c(sc2n1)CCCC3
 : 0% | -22%
CCCN(CCC)C(=O)Cn1c(=O)n(-c2ccc(C)c(C)c2)c(=O)c2c3c(sc21)CCCCC3
 : -9% | ?
Cc1cc(=O)[nH]c2nnc(SCc3cccc(F)c3)n12
 : -15% | -2%
Cc1ccc(NC(=O)CSc2nc(-c3cccs3)nc3cc(=O)[nH]n23)cc1C
 : 7% | -14%
Cc1ccc(NC(=O)CSc2nc3c(oc4ccccc43)c(=O)n2Cc2ccco2)cc1
 : -11% | 0%
CCCn1c(CCC(=O)Nc2ccc(OCC)cc2)nc2cccnc21
 : -20% | 5%
CCc1ccc(NC(=O)c2sc3nc(C)c(Cl)c(C)c3c2NC(=O)c2ccccc2)cc1
 : 15% | -15%
Nc1nonc1-c1nc2ccccc2n1CC(=O)Nc1cccc(C(F)(F)F)c1
 : ? | ?
Cc1ccc(C)c(NC(=O)N2CCC(CN3CCOCC3)CC2)c1
 : -11% | -20%
Cc1cccc(C)c1NC(=O)c1sc(-n2nc(C)c(Cc3ccc4c(c3)OCO4)c2C)nc1C
 : -8% | -1%
CC(C)c1ccc(/C=C(\C#N)c2nc(-c3ccc(O)cc3)cs2)cc1
 : -22% | ?
CC1CCC(C(=O)N(c2cc(C#CC(C)(C)C)sc2C(=O)O)C2CCC(O)CC2)CC1 (centres undefined)
 : ? | .
CC(C)(C)OC(=O)N1CCC(c2c(C(=O)NC3CCN(Cc4ccccc4)CC3)cnn2-c2ccc(F)cc2F)CC1
 : -8% | ?
Cc1ccc(CNc2ncnc3c2c(-c2ccccc2)cn3-c2ccccc2)cc1
 : -16% | ?
CCc1ccccc1NS(=O)(=O)c1ccc(-c2coc(C)n2)cc1
 : ? | -48%
CC(C)c1ccc(NC(=O)Cn2cc(S(=O)(=O)Cc3ccccc3Cl)c3ccccc32)cc1
 : ? | ?
COc1ccc(C2=NC(C)(C)N(CC(=O)Nc3ccc(F)c(F)c3)C2=O)cc1
 : ? | ?
CCc1ccc(S(=O)(=O)N(C(=O)Oc2ccccc2)c2ccc3oc(C)c(C(=O)OC)c3c2)cc1
 : 7.9µM* | ?
COCCCNC(=O)CSc1nc(-c2ccc(OC)cc2)[nH]c1-c1ccc(OC)cc1
 : -16% | 1%
NNc1nnc(NN)c2ccccc12
 : 16% | .
COc1ccc(Cl)cc1NC(=O)CN(C)S(=O)(=O)c1ccc2c(c1)CCCN2C(C)=O
 : ? | ?
Cc1ccccc1NC(=O)CCc1c(C)nc2c(c1C)c(=O)n(C)c(=O)n2C
 : -10% | -6%
Cc1ccccc1N(C)S(=O)(=O)c1nnc(NC(=O)C(C)C)s1
 : -10% | -17%
CCOc1cc(CNCCSc2nnnn2C)cc(Cl)c1OCc1ccc(Cl)cc1
 : ? | ?
Cc1ccc(COC(=O)c2[nH]c3c(c2C)C(=O)CC(c2ccc(N(C)C)cc2)C3)cc1 (centres undefined)
 : -3% | -7%

Next section; it opens with the six that closed the last part.
Fields – HTT promoter inh | PMP22 txn prim
NNc1nnc(NN)c2ccccc12
 : 16% | .
COc1ccc(Cl)cc1NC(=O)CN(C)S(=O)(=O)c1ccc2c(c1)CCCN2C(C)=O
 : ? | ?
Cc1ccccc1NC(=O)CCc1c(C)nc2c(c1C)c(=O)n(C)c(=O)n2C
 : -10% | -6%
Cc1ccccc1N(C)S(=O)(=O)c1nnc(NC(=O)C(C)C)s1
 : -10% | -17%
CCOc1cc(CNCCSc2nnnn2C)cc(Cl)c1OCc1ccc(Cl)cc1
 : ? | ?
Cc1ccc(COC(=O)c2[nH]c3c(c2C)C(=O)CC(c2ccc(N(C)C)cc2)C3)cc1 (centres undefined)
 : -3% | -7%
O=C(CCNS(=O)(=O)c1ccc2c(c1)CCN2C(=O)C1CC1)N1CCN(c2ccccc2F)CC1
 : -43% | ?
COc1cc(OC)c(NC(=O)Nc2cccc(OCc3cc(=O)n4ccccc4n3)c2)cc1Cl
 : 14% | ?
Cc1ccc(C)c(NC(=O)c2cc(S(=O)(=O)N3CCN(c4cccc(Cl)c4)CC3)ccc2F)c1
 : ? | -15%
Cc1c(-c2ccccc2)oc2c(C(=O)OCCN3CCCCC3)cccc2c1=O
 : -7% | .
Cc1cc(Nc2ccc(C)c(C)c2)n2cnnc2n1
 : 5% | -2%
O=c1cc(-c2ccccc2)n2c(SCc3ccc([N+](=O)[O-])cc3)nnc2[nH]1
 : 8% | ?
Cc1ccc2c(c1)c(=O)c1ccccc1n2CCCC(=O)Nc1ccc(Cl)cc1C
 : -6% | ?
O=C(CSc1nc(-c2ccc(F)cc2)[nH]c1-c1ccccc1)NCC1CCCO1 (centres undefined)
 : ? | -22%
COc1ccc(-n2cc(C(=O)OCc3ccc(F)c(F)c3)c3ccccc3c2=O)cc1
 : -15% | ?
CCOc1ccc(NC(=O)CN2CCN(C3CCCCC3)C(=O)C2=O)cc1
 : ? | ?

Other compounds
Compound	HTT promoter inh	PMP22 txn prim
CCOC(=O)c1ccccc1NC(=O)Cn1c(=O)n(Cc2nc(-c3ccccc3)no2)c(=O)c2ccccc21	-8%	38%
Nc1c(-c2nc(-c3cccs3)no2)nnn1-c1cccc(Cl)c1	54%[activator]	14%
COc1ccc(S(=O)(=O)N(CC(=O)NCCSc2ccccc2)c2ccc(C)cc2)cc1	?	?
CCOc1ccc(-c2cc(NC(=O)Nc3ccccc3C(F)(F)F)c(C(=O)OC)s2)cc1	49%[activator]	?
CN(C(=O)CSc1nc2ccccc2n1Cc1ccccc1C#N)c1ccccc1	?	?
CCOC(=O)c1ccccc1NC(=O)c1sc2ncn(Cc3cccc(F)c3)c(=O)c2c1C	-9%	11%
COc1ccc(CCNC(=O)c2ccc(CS(=O)(=O)Cc3cccc(C)c3)o2)cc1OC	?	?
CCOc1ccc(NC(=O)Cn2nc(-c3ccncc3)ccc2=O)cc1	-22%[11.5 µM]	5%
Cc1ccc(Cl)cc1N1CCN(C(=O)C2CCC(CNS(=O)(=O)c3cccs3)CC2)CC1 (centres undefined)	0%	?
Cc1cccc(Cn2c(SCc3ccc(C(=O)N4CCCCCC4)cc3)nc3ccncc32)c1	?	?
CN1CCN(Cc2ccc(NC(=O)Nc3ccc(Oc4cc(NC(=O)C5CC5)ncn4)cc3)cc2C(F)(F)F)CC1	?	.
COc1ccc(CNC(=O)c2cc3cccc(OC)c3oc2=O)cc1	-10%	1%
COc1ccc(CCNC(=O)CCCCn2c(=O)c3ccccc3n(Cc3cccc(C)c3)c2=O)cc1OC	?	?
Cc1cccc(NC(=O)C2CCN(c3nnc(C)c4c(C)n(-c5ccccc5)nc34)CC2)c1C	5%	-15%
Cc1ccc(-n2ncc(C(=O)N3CCN(c4ccccn4)CC3)c2C2CCN(C(=O)OC(C)(C)C)CC2)cc1	0%	-35%
COC(=O)c1ccc(NC(=O)C(C)N2Cc3ccccc3C2=O)cc1 (centres undefined)	-20%	46%
CCOC(=O)c1c(C)oc2c1cc(NS(=O)(=O)c1ccc(C)cc1)c1ccccc12	-20%	?
Cc1ccc(CNC(=O)CCNS(=O)(=O)c2cccc3nsnc23)cc1	-9%	9%
CCC(C(=O)OCCN(CC)CC)c1ccccc1 (centres undefined)	10%	.
CCc1ccc(N2CCn3c2nc2c3c(=O)n(Cc3c(F)cccc3Cl)c(=O)n2C)cc1	-2%	10%
Cc1ccc(Cl)cc1N1CCN(C(=O)CCc2nnc3n(C)c(=O)c4ccccc4n23)CC1	-11%	?
CCOc1ccc(N(C)S(=O)(=O)c2cc(-c3cc(C)no3)ccc2OC)cc1	?	?
O=C(Nc1ccc(F)c(F)c1)c1cc(S(=O)(=O)NCc2ccc3c(c2)OCO3)ccc1F	?	-5%
Cc1c(C(=O)OC2CCCCCC2)[nH]c2c1C(=O)CC(c1ccccc1Cl)C2 (centres undefined)	?	?
CCCn1c(=O)n(-c2cc(Cl)c(OC)cc2OC)c(=O)c2c3c(sc21)CN(C(C)=O)CC3	3%	-19%
CN(Cc1ccccc1)C(=O)C1CCN(Cc2cc3ccccc3n2Cc2ccccc2)CC1	-15%	?
CCc1ccc(NC(=O)Cn2c(=O)n(CCC(C)C)c(=O)c3cccnc32)cc1	-4%	-23%
Cc1cc(Nc2cccc(Cl)c2)nc2ccc(NC(=O)Cc3c(F)cccc3Cl)cc12	-30%	?
O=C(CSc1nc(-c2ccccc2)no1)N1CCCCC1	-2%	-14%
CCc1ccc(CNC(=O)CCCn2ccc3cc(S(=O)(=O)N4CCCC4)ccc32)cc1	?	?
COc1ccc(NC(=O)CN2C(=O)COc3ccc(S(=O)(=O)NC4CCCC4)cc32)cc1OC	6%	0%
Cc1ccccc1Nc1nn2c(=O)c3ccc(C(=O)NCC(C)c4ccccc4)cc3nc2s1 (centres undefined)	?	?
CCOC(=O)c1cnn(-c2cccc(F)c2)c1C1CCNCC1	-7%	-2%
O=C(COc1ccccc1[N+](=O)[O-])Nc1cc(-c2nc3cc(Cl)ccc3o2)ccc1Cl	3%	-14%
CCn1ccc2c(OCC(=O)Nc3ccccc3C)cccc2c1=O	-35%	?
O=C(Nc1ccc(F)cc1F)C1CCN(S(=O)(=O)c2ccc3[nH]c(=O)ccc3c2)CC1	-11%	2%
COc1ccc(C2=NC(c3ccncc3)=Nc3ccc(Br)cc3N2)cc1	-10%	1%
Cc1ccc2nc(-c3ccc(Cl)c(NC(=O)COc4cccc(C)c4C)c3)oc2c1	-11%	19%
COc1ccc(NC(=O)CC2C(=O)N(c3ccc(C)cc3)C(=O)N2CCc2ccccc2)cc1 (centres undefined)	-34%	-18%
Cc1ccc(C(=O)N2CCc3cc(CNS(=O)(=O)c4cccs4)ccc32)cc1	?	?
COc1ccc(OC)c(CNC(=O)c2cc(S(=O)(=O)N3CCC(C)CC3)cn2C)c1	-30%	?
Clc1ccc(-c2nc3sccn3c2C=NOCc2ccc(Cl)c(Cl)c2)cc1	-7%	.
O=C(Nc1cc(C(F)(F)F)ccc1Cl)c1ccc2c(c1)CCN2S(=O)(=O)c1ccccc1	-21%	-8%
O=C(Cn1c(=O)n(-c2ccc(F)c(Cl)c2)c(=O)c2sc3ccccc3c21)NC1CCCCC1	-6%	-2%
